Screens as filed in PubChem.
Autofluor counter: counter-screen for toxin protease inhibitors: compound fluorescence; hit rate 3.1% among 360,000; compound autofluorescence counterscreen, microsphere flow cytometry; hits give high values; fluorescence intensity (test concentration not listed); AID 624483;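 active means at least 3 SD above the mean of all compounds, about 16000 in these data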;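 further: 100 nL of 1 mM stock went into each well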
BJeLR viability: MLPCN primary cell-based screen for lethality selective to Ras in HRASV12 cells; BJeLR (HRASV12) viability, CellTiter-Glo ATP luminescence, 48 h; reference of the scale not given here; inhibition, % (no concentration beside the values); hit rate 0.17% among 300,000; AID 1554, 2009;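 active means replicate mean above 50%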;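 further: 50 nL library stock added to about 25 µL; numbers are from one replicate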
Mtb hypoxia inh: PubChem AID 1159583; M. tuberculosis hypoxia-regulated fluorescent reporter, fluorescence; hit rate 0.1% among 300,000; fluorescence inhibition, % (concentration not given with the values);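 active means 35 to 45% if threefold the growth effect, above 45% if 1.5-fold the growth effect; inactive means the rest, general growth blockers included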;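 further: wells of about 50 µL received 100 nL stock; 0% = vehicle wells and 100% = reference inhibitor wells; whole bacteria with a GFP reporter of the hypoxia response; strong numbers were not always called active; many hits fall short of the cut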
Sa RN4220 lethal: growth inhibition of S. aureus RN4220, primary screen, OD600 | 16 h | inhibition, % (concentration not given with the values) | hit rate 0.33% among 330,000 | AID 1259311, 2017;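 active means z-score of -3 or lower and OD600 up to 0.18 on both plates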;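 further: plate controls were untreated cells for no effect and reference antibiotic for full effect; stock transfer was 100 nL into about 80 µL; one replicate is shown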
ugtP null kill: growth inhibition of ugtP-null S. aureus, primary screen, RN4220 ugtP deletion, OD600; growth inhibition, % (no concentration beside the values); 16 h; some inactives read as strong as hits; hit rate 0.54% among 330,000; AID 1259309, 2017;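 active means z-score under -3 and OD600 up to 0.15 on both plates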;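 further: plate controls were untreated wells for no effect and antibiotic for full effect; wells of about 80 µL received 100 nL stock; the first replicate is given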
PrP 5UTR inh: inhibition of PrP 5' UTR reporter expression | cell-based PrP 5' UTR mRNA reporter, plate reader | inhibition, % (no concentration beside the values) | hit rate 0.35% among 340,000 | AID 488862, 2010;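 active means every replicate at 50% or more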;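 further: 0 = median of the neutral control wells; tested in H4 reporter cells; numbers are from one replicate; inactives centre near -14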
Mtb hypoxia inh growth: second read-out of Mtb hypoxia inh, no call of its own (marks repeat the call); growth inhibition, %; measured here: M. tuberculosis growth (absorbance);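 0% = vehicle and 100% = reference antibiotic; read after six days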
An asterisk follows results filed as active; . = no result given.

SMILES | Autofluor counter | BJeLR viability | Mtb hypoxia inh | Mtb hypoxia inh growth | Sa RN4220 lethal | ugtP null kill | PrP 5UTR inh
COC(=O)c1ccccc1NC(=O)C1CCCN(c2nnc(-n3cccc3)s2)C1 (stereo not given) | 5923 | -11 | 1 | 21 | 8.0 | -17 | -7
O=C(Cc1ccccc1)Nc1ccc(Cl)cn1 | 3005 | 12 | 14 | 11 | -4.0 | 3 | -23
CCN(CC)S(=O)(=O)c1ccc(NC(=S)NC(=O)C2CCC2)cc1 | 5229 | -5 | 9 | 3 | 1.0 | 34 | -24
CCOC(=O)c1cnc(SC)nc1Oc1cccc(NS(=O)(=O)c2ccc(C)cc2)c1 | 4507 | -2 | 5 | -1 | 5.1 | 10 | 2
CCn1nc(C)cc1C(=O)N1CCCC(N(C)CCc2ccc(OC)c(OC)c2)C1 (stereo not given) | . | -7 | -8 | -5 | 3.0 | 5 | -12
O=C(NCc1ccncc1)c1cccc(NS(=O)(=O)c2ccc(F)c(F)c2)c1 | 3422 | . | -10 | 4 | -1.5 | -2 | 6
COC(=O)CCC(=O)Nc1ccc(S(=O)(=O)N2CCc3ccccc32)cc1 | 4395 | -3 | 9 | -3 | 3.5 | 3 | -54
COc1cc(C(=O)c2c(C)c(CCC#N)n3ccccc23)cc(OC)c1OC | 4142 | 16 | 5 | 0 | 5.6 | 9 | -31
COc1ccc2nc(SCc3cccc(C)c3)nc(C)c2c1 | 2539 | -6 | . | . | . | . | -152
CCOc1ccc(N2CC(C(=O)Oc3ccccc3)CC2=O)cc1 (stereo not given) | 9485 | -2 | -3 | -6 | 0.0 | -7 | -27
CN(C)C=Cc1onc(-c2c(F)cccc2Cl)c1C#N | . | . | 1 | 6 | -0.2 | -14 | .
C[C@@H](C(=O)NC1CCCCC1)N1C(=O)N2CCc3c([nH]c4ccccc34)[C@@]2(C)C1=O | 5379 | -4 | . | . | 1.8 | 0 | -8
Cc1n[nH]c(C)c1S(=O)(=O)N1CCCC(C(=O)N2CCc3ccccc32)C1 (stereo not given) | 4442 | 4 | . | . | 0.8 | -7 | -3
COc1ccc(-c2c(C)nn(-c3ccccc3)c2N)cc1 | 20023* | -1 | 6 | 4 | 3.7 | 5 | -74
Cc1cccc(CSc2nc(N)c(C#N)c(-c3cccs3)c2C#N)c1 | 9376 | -13 | 11 | 5 | 5.2 | 31 | -16
COc1ccccc1N1CCN(S(=O)(=O)c2ccc3nc(-c4ccccc4)[nH]c3c2)CC1 | 2405 | -4 | -8 | 1 | -2.8 | -11 | -21
Cc1cccc(NC(=O)CSc2nnc(CNC(=O)c3ccco3)n2C)c1C | . | 0 | -4 | -7 | 0.2 | 8 | -22
O=c1[nH]n(-c2ccccc2)c(=O)c(Cl)c1Cl | 8136 | -2 | 10 | 6 | 1.1 | 6 | 9
CCN(CC)S(=O)(=O)c1ccc2[nH]c(=O)c3ccccc3c2c1 | 3926 | -2 | 5 | 11 | 3.3 | 0 | -17
CN(Cc1ccccc1)C(=O)COC(=O)c1cc([N+](=O)[O-])ccc1N1CCOCC1 | . | -6 | 12 | 3 | 2.9 | 5 | -12
CCC(C)n1c(OC)nc2c1c(=O)n(C)c(=O)n2C (stereo not given) | 4480 | 5 | 3 | 5 | 3.6 | 5 | -3
CCc1nc(SCC(=O)N2CCCCC2)c2c(=O)n(C)c(=O)n(C)c2n1 | 4175 | 7 | 7 | 4 | 2.5 | 8 | 2
O=C(N=Nc1c(O)[nH]c2ccc([N+](=O)[O-])cc12)c1ccccc1[N+](=O)[O-] | 4632 | 7 | 2 | 9 | 5.0 | 10 | -19
NS(=O)(=O)c1ccc(CCNC(=O)CSc2nc3ccsc3c(=O)n2C2CC2)cc1 | 2417 | -9 | 13 | 7 | 6.5 | 5 | -3
Cc1c(OCC(=O)N[C@@H](Cc2ccccc2)C(=O)O)ccc2c3c(c(=O)oc12)CCC3 | 5371 | -3 | . | . | 4.9 | -4 | -22

Next section:
SMILES | Autofluor counter | BJeLR viability | Mtb hypoxia inh | Mtb hypoxia inh growth | Sa RN4220 lethal | ugtP null kill | PrP 5UTR inh
O=C(Nc1ncccc1Cl)C1COc2ccccc2O1 (stereo not given) | 12063 | 4 | 1 | 13 | 1.9 | 2 | -50
CCCCCc1ccc(-c2cn(CC3CCCCC3)nn2)cc1 | 3480 | 2 | 5 | 3 | 0.3 | 1 | 4
CC1(C)CC(NC(=O)c2ccncc2)CC(C)(C)N1O | 2644 | -1 | 7 | 9 | 2.0 | 8 | -19
Cn1c(=O)c(C(=O)NNC(=O)c2ccccc2Br)c(O)c2ccccc21 | 4464 | -2 | -3 | -1 | 15 | -11 | -30
O=C(O)c1cc(Cl)c(Cl)cc1C(=O)Nc1cccc2cccnc12 | 2349 | 4 | -3 | 10 | 0.3 | -3 | -6
Cc1ccc(OC(C)C(=O)Nc2ccncc2)cc1C (stereo not given) | 3406 | -5 | 1 | 3 | 4.6 | 3 | 0
Cc1ccc(C(=O)NC(C#N)=C(Cl)Cl)cc1 | . | 13 | 0 | 5 | 8.6 | 10 | .
O=C(CN1C(=O)c2ccccc2C1=O)NCc1ccncc1 | 20208* | 6 | 0 | 4 | 0.0 | 1 | 15
CCC(C)n1c(SCc2ccc([N+](=O)[O-])cc2)nc2ccsc2c1=O (stereo not given) | 10302 | 3 | -11 | -1 | 4.7 | -17 | 1
CCOC(=O)N1CCN(c2cc(=O)n(-c3ccc(C)cc3)c(=O)[nH]2)CC1 | 4280 | 1 | 5 | 2 | -7.6 | -4 | -8
O=[N+]([O-])c1ccc(C[n+]2cc(-c3ccccc3)n3c2CCCCC3)cc1 | 4130 | 2 | 8 | 4 | 3.6 | 11 | -25
CCN(Cc1nc(-c2ccc(C)cc2)no1)C(=O)c1ccco1 | 3695 | 3 | -13 | 9 | -4.3 | -2 | -18
Oc1ccc(C=NNC(=S)Nc2cccnc2)cc1 | . | . | 6 | 8 | 2.3 | 11 | .
OCCC1CN(Cc2cn[nH]c2C2CCCCC2)CCN1C1CCCC1 (stereo not given) | 4526 | -8 | 2 | 4 | 2.5 | 1 | -2
CN(Cc1ccccc1)C(NC(=O)c1ccco1)C(Cl)(Cl)Cl (stereo not given) | 4097 | -3 | -8 | 7 | 27 | 30 | -1
O=C(COC(=O)c1ccccc1O)Nc1ncc(Cl)cc1Cl | 5014 | 1 | -7 | -4 | -2.1 | 10 | -16
O=C(Cc1ccccc1[N+](=O)[O-])Nc1ccc2c(c1)OCO2 | 3454 | -3 | -8 | -2 | 3.8 | 6 | -24
CC(C)(C)n1nnnc1CN(Cc1ccco1)Cc1cc2cc3c(cc2[nH]c1=O)OCO3 | 2202 | 5 | . | . | 3.1 | 0 | 8
COc1ccccc1NC(=O)c1cc(S(=O)(=O)N2CCCC2)cn1C | 4016 | 0 | -10 | -5 | 7.7 | 2 | -10
CCC(=O)Nc1ccc(OCC2CCCO2)cc1 (stereo not given) | 2999 | 4 | 2 | -1 | 1.7 | 4 | -4
COc1ccc(OC)c(-c2cc(C(=O)Nc3ccc(F)cc3F)no2)c1 | 4025 | 6 | 11 | 0 | 1.3 | -5 | -1
CCOc1ccc(N(CC(=O)NCCC2=CCCCC2)S(=O)(=O)c2ccccc2)cc1 | 4569 | 0 | -4 | -1 | 1.3 | 5 | -19
CCOc1ccc(CNC(=O)CN2C(=O)C(c3ccccc3)Oc3cccnc32)cc1 (stereo not given) | 5822 | -8 | 2 | 5 | 0.2 | 7 | -4
O=C1C=CC(=C(c2ccc(O)cc2)c2ccc(O)cc2)C=C1 | 3909 | . | 24 | 11 | 25 | -8 | 16
COc1ccc(C2/C(=C(/O)c3ccc(C)cc3)C(=O)C(=O)N2C)c(OC)c1 (stereo not given) | 3253 | -10 | 4 | 17 | 4.2 | 16 | -15

(list continues)
SMILES | Autofluor counter | BJeLR viability | Mtb hypoxia inh | Mtb hypoxia inh growth | Sa RN4220 lethal | ugtP null kill | PrP 5UTR inh
CN1CCN(C(=O)c2cc(Cl)ccc2Cl)CC1 | 3185 | -7 | 12 | -2 | -15 | 1 | -17
Cc1ccc(C)c2c1sc(=NC(=O)CN1C(=O)CCC1=O)n2C | 5796 | -8 | 0 | -3 | 4.1 | -2 | -6
C=CCNC(=O)c1cc2c(C(F)(F)F)nn(C)c2s1 | 5196 | 3 | . | . | 0.8 | 0 | -24
O=C(c1ccc2c(c1)OCO2)N(Cc1ccco1)C1(C(=O)NC2CCCCC2)CCCCC1 | 6053 | 5 | 13 | 7 | 5.9 | -4 | -26
CCCC(=O)N1CCN(c2nc(CC(C)C)c3c(c2C#N)CCC3)CC1 | 4813 | -2 | . | . | . | . | -30
CNC(=S)SCCOc1ccc(C)cc1 | 2553 | 3 | 2 | 4 | 2.0 | 15 | 0
COc1ccc2c(c1OC)C(=O)OC2Nc1ccc(S(=O)(=O)N=C(N)N)cc1 (stereo not given) | 4880 | 9 | . | . | . | . | -4
CN1CCC(N(C)C(=O)NC2CCCCC2)CC1 | 3271 | 15 | 5 | 5 | 1.6 | 3 | -12
COc1ccc(N2CCN(C(=O)C34CCC(C)(C(=O)C3)C4(C)C)CC2)cc1 (stereo not given) | . | 9 | 8 | 12 | 6.6 | 1 | -15
COc1ccc(C)cc1NC1=C(Cl)C(=O)N(C2CCCCC2)C1=O | 22693* | 3 | 0 | 10 | 1.8 | 33 | -13
CCN(CC(=O)Nc1c(F)cccc1F)C(=O)c1ccc(C(=O)c2ccccc2)cc1 | 4341 | -7 | 8 | -2 | 3.7 | 10 | -12
C=CSc1sc(Cl)c(N(C)C)c1[N+](=O)[O-] | 4462 | 6 | 5 | 4 | 5.6 | 15 | 8
O=C(Nc1ccc([N+](=O)[O-])cc1)OCCc1ccccn1 | 4069 | -5 | 6 | 13 | 3.4 | -2 | -56
Cn1c(N)nc2nc(CCc3ccccc3)c(=O)[nH]c2c1=O | 4118 | 1 | -2 | -11 | 2.8 | 4 | -25
CCOC(=O)C1(Cc2ccccc2)CCCN(Cc2cccc(C(C)=O)c2)C1 (stereo not given) | 10888 | 5 | 15 | 6 | 5.0 | 6 | -58
CCCCn1c(CNC(=O)C(C)(C)C)nc2ccccc21 | 5601 | -4 | 4 | 6 | 6.3 | -3 | -21

Single values from above:
BJeLR viability, CN1CCC(N(C)C(=O)NC2CCCCC2)CC1 stands at 15
PrP 5UTR inh, COc1ccc(C)cc1NC1=C(Cl)C(=O)N(C2CCCCC2)C1=O stands at -13

Structural class, those above containing an NH in an aromatic ring
SMILES | Autofluor counter | BJeLR viability | Mtb hypoxia inh | Mtb hypoxia inh growth | Sa RN4220 lethal | ugtP null kill | PrP 5UTR inh
C[C@@H](C(=O)NC1CCCCC1)N1C(=O)N2CCc3c([nH]c4ccccc34)[C@@]2(C)C1=O | 5379 | -4 | . | . | 1.8 | 0 | -8
Cc1n[nH]c(C)c1S(=O)(=O)N1CCCC(C(=O)N2CCc3ccccc32)C1 (stereo not given) | 4442 | 4 | . | . | 0.8 | -7 | -3
COc1ccccc1N1CCN(S(=O)(=O)c2ccc3nc(-c4ccccc4)[nH]c3c2)CC1 | 2405 | -4 | -8 | 1 | -2.8 | -11 | -21
O=c1[nH]n(-c2ccccc2)c(=O)c(Cl)c1Cl | 8136 | -2 | 10 | 6 | 1.1 | 6 | 9
CCN(CC)S(=O)(=O)c1ccc2[nH]c(=O)c3ccccc3c2c1 | 3926 | -2 | 5 | 11 | 3.3 | 0 | -17
O=C(N=Nc1c(O)[nH]c2ccc([N+](=O)[O-])cc12)c1ccccc1[N+](=O)[O-] | 4632 | 7 | 2 | 9 | 5.0 | 10 | -19
CCOC(=O)N1CCN(c2cc(=O)n(-c3ccc(C)cc3)c(=O)[nH]2)CC1 | 4280 | 1 | 5 | 2 | -7.6 | -4 | -8
OCCC1CN(Cc2cn[nH]c2C2CCCCC2)CCN1C1CCCC1 (stereo not given) | 4526 | -8 | 2 | 4 | 2.5 | 1 | -2
CC(C)(C)n1nnnc1CN(Cc1ccco1)Cc1cc2cc3c(cc2[nH]c1=O)OCO3 | 2202 | 5 | . | . | 3.1 | 0 | 8
Cn1c(N)nc2nc(CCc3ccccc3)c(=O)[nH]c2c1=O | 4118 | 1 | -2 | -11 | 2.8 | 4 | -25

Compounds were not picked by outcome; any-hit rate near 4%.
